Vif TR-FRET: inhibitors of Vif binding to APOBEC3G peptide, primary screen, biochemical, TR-FRET, GST-Vif 1-94, biotin-A3G peptide, dose response retest (AID 1117319); TR-FRET GST-Vif / biotin-A3G peptide binding; higher % means a stronger effect; test concentration not given here; strong numbers were not always called active; inhibition, %, or IC50 in µM where a hit was titrated; Virion infectivity factor (Human immunodeficiency virus type 1 group M subtype B (isolate …; 0.57% of 260,000 active;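 active means above the screen mean plus three standard deviations and confirmed in dose response; inconclusive means results disagree or hit not tested in dose response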;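 further: Vif residues 1-94 fused to GST binding biotinylated APOBEC3G peptide 110-148; 0% = full assay without inhibitor and 100% = GST in place of GST-Vif; retest series ran down from 100 µM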
E coli growth: E. coli growth inhibition, primary screen, OD600; Escherichia coli growth, 23 h; active compounds read low; OD600 absorbance (test concentration not listed); 0.21% of 330,000 active; AID 1053175, 2014;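 active means OD600 absorbance below the run mean of sample wells minus 3.6 SD, in any replicate, cut at about 0.56 in these data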;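 further: stock transfer was 300 nL into about 60 µL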
FGF22 binding: binders of human FGF22 protein, primary screen, FGF22 synaptogenesis inhibitor project, biophysical, thermal shift, single point; recombinant FGF22 thermal shift, SYPRO orange fluorescence; percent of sucrose octasulfate shift, DMSO zero; Fibroblast growth factor 22 (Homo sapiens), Q9HCT0; 1.5% of 340,000 active; calls only at 9.99 µM;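 active means melting point raised past a set limit in the mean and every replicate; inconclusive means no clear call; three in four hits are not shown here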
Target sequence (Q9HCT0 whole entry, looked up): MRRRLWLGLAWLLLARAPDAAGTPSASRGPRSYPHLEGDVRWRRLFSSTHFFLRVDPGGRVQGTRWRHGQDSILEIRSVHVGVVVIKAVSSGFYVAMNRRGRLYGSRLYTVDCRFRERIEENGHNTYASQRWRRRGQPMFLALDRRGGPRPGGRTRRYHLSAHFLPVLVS
ALR H2O2 inh: inhibitors of human ALR sulfhydryl oxidase, primary screen, biochemical, H2O2 detection, HRP-luminol luminescence, single point; FAD-linked sulfhydryl oxidase ALR (Homo sapiens), P55789; purified ALR, DTT oxidation; inhibition, % (concentration not given with the values); 3.8% of 290,000 active;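 active means mean and each replicate at 75% or more; inconclusive means only one of the two met; inactive means neither met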;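 further: stock transfer was 7.5 nL into about 7.5 µL; 0% = neutral wells and 100% = wells with inactivated enzyme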
Target sequence (P55789 whole entry, looked up): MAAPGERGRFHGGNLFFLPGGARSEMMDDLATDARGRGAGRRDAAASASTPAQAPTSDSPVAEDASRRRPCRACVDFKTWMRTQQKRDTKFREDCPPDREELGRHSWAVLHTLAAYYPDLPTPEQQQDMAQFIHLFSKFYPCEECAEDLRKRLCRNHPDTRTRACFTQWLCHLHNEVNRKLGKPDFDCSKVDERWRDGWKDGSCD
rRNA inh HTS: reduced GFP signal of wild-type E. coli, primary screen, bacterial rRNA inhibitor project, GFP/RFP fluorescence, OD600, single point | E. coli WT GFP vs humanized-ribosome RFP mutants, 24 h; active compounds read low; DMSO median 0, no signal -100 | GFP signal change (wild-type ribosome), % (test concentration not listed) | 1.6% of 350,000 active | AID 720706, 2013;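 active means significant combined selectivity score with lowered wild-type GFP, culture density cut under 30%, mutant RFP and density less affected; inactive means any of these conditions unmet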; further: one replicate is shown; some compounds called inactive have numbers as strong as hits
MLL AF4-AF9 inh: inhibitors of AF4 peptide binding to AF9, primary screen, biochemical, AlphaScreen, biotin-AF4 peptide, FLAG-AF9, single point; Protein AF-9 (Homo sapiens), P42568; AID 651704, 2012; inhibition, % at 10 µM; 0.47% of 350,000 active;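 active means every replicate reaching a set inhibition limit, whatever the replicate mean, cut at about 25% in these data; inconclusive means mean inhibition reaches that limit but some replicates miss it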;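 further: 0% = plate neutral control median and 100% = total signal loss; the record names both 10 and 1 µM as test concentration; the first replicate is given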
Target sequence (P42568 whole entry, looked up): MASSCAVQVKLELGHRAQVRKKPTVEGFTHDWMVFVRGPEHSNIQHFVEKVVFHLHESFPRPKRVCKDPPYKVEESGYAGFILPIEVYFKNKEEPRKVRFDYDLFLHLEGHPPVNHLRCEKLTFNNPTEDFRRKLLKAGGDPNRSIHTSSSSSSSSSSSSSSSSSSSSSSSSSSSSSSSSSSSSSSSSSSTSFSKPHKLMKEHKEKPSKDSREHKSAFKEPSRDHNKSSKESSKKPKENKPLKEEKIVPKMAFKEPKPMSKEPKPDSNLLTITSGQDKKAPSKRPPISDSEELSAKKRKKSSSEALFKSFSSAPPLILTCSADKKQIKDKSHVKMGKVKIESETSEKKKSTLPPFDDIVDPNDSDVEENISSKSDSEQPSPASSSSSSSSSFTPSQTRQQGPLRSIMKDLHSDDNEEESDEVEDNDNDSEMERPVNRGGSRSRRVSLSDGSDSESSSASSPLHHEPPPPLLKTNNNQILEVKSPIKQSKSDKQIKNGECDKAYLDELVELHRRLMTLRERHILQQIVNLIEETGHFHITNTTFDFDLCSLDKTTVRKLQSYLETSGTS
HNF4A DNA FP: change in binding of human HNF4A to DNA, primary screen, biochemical, fluorescence polarization, FITC-DNA | Hepatocyte nuclear factor 4-alpha (Homo sapiens), P41235 | 1 h | activity change, % at 10 µM | 0.3% of 360,000 active; in the data active means activity change above about 30%, passing the limit was not always enough;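 further: controls were the assay level and a saturating level of protein; the project sought stronger binding though the title names inhibitors; some compounds called inactive have numbers as strong as hits; positive values seem to mean higher polarization but the record does not say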
rRNA inh HTS OD600: second read-out of rRNA inh HTS, no call of its own (marks repeat the call); OD600 change, %; measured here: OD600 growth;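 optical density of the mix in the first replicate; 0 = DMSO median and -100 = no signal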
rRNA inh HTS RFP: second read-out of rRNA inh HTS, no call of its own (marks repeat the call); RFP signal change, %; measured here: RFP humanized mutant strains;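 first replicate; 0 = DMSO median and -100 = no signal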
* marks the source's active call; other numbers are inactive results; i = inactive; u = inconclusive; x = not tested or not shown; + = active, no number; & = joins results of further samples. Only part of the results is shown; rates above refer to the full screens.

SMILES	Vif TR-FRET	E coli growth	FGF22 binding	ALR H2O2 inh	rRNA inh HTS	rRNA inh HTS OD600	rRNA inh HTS RFP	MLL AF4-AF9 inh	HNF4A DNA FP
CN1CCN(c2ccc(Cl)cc2NC(=O)c2ccc(=O)n(C)n2)CC1	15%	0.72	i	-13	4	-4	1.4	-1.3	1.1
COc1ccc(S(=O)(=O)n2nc(-c3ccc(Cl)cc3)cc2N)cc1	2%	0.72	i	-7	-3	-8	9.3	-5.6	-2.4
COc1ccc(CNC(=O)[C@H](C)NC(=O)C2CC(=O)N(c3ccc(OC)cc3)C2)cc1 (some centres not stated)	x	0.69	i	-2	6	6	1.0	-3.8	-5.7
Cc1oc2cc(O)cc(C)c2c(=O)c1-c1cnn(-c2ccccc2)c1	u	0.76	x	x	x	x	x	x	0.8
CCN(CC)CCN(Cc1cc2cc(C)c(C)cc2[nH]c1=O)C(=S)NCc1ccco1	-7%	0.69	i	-15	-9	-10	2.3	11	13
Cc1ccc2c(c1)N(C(=O)CCC(=O)NCCN1CCOCC1)CC(C)O2 (configuration not stated)	x	0.77	i	-14	13	16	-1.7	-2.0	4.3
Cc1ccc(NC(=O)CSc2nc(=O)n(CCCN(C)C)c3c2CCC3)c(C)c1	7%	0.64	x	-10	8	4	-1.3	0.9	0.7
N#Cc1c(N2CCSCC2)nsc1-c1ccccc1Cl	-45%	0.68	i	-5	-35	-68	-21	-6.6	5.2
COC(=O)c1ccccc1NC(=O)c1ccco1	3%	0.67	x	-3	x	x	x	x	-0.8
c1ccc(CNc2nnnn2-c2ccccc2)cc1	8%	0.7	x	2	x	x	x	x	5.1
CSc1ccccc1NC(=S)Nc1ccc(S(N)(=O)=O)cc1	-13%	0.67	x	-1	21	19	2.1	-13	3.1
Cc1noc(NS(=O)(=O)c2ccc(NC(=O)C(CC(C)C)N3C(=O)c4ccccc4C3=O)cc2)c1C (configuration not stated)	-10%	0.67	i	-2	-7	-3	1.5	8.7	1.1
O=c1[nH]c(SCCOc2ccccc2F)nc2ccccc12	-1%	0.67	i	x	4	3	2.4	3.8	0.3
Cc1cccc(C)c1-n1nnnc1C(c1cccs1)N1CCN(C/C=C/c2ccccc2)CC1 (configuration not stated)	x	x	i	x	-1	-41	5.3	13	3.2
CCOC(=O)C1=C[C@@H](C(C)(C)C)N(S(=O)(=O)c2ccc(C)cc2)[C@H]1c1ccc(C#N)cc1	x	x	i	x	10	12	2.5	1.1	-5.6
COC(=O)c1ccc(NC(=O)c2cc(-c3ccncc3)nc3ccccc23)cc1	-8%	0.7	i	x	-9	-10	2.2	7.8	3.2
COc1ccc(OCCCSc2ncccn2)cc1	1%	0.73	x	-22	x	x	x	x	-2.5
N=C1/C(=C\c2ccc(OC(=O)c3ccccc3Cl)cc2)C(=O)N=C2SC(N3CCOCC3)=NN12	x	0.68	i	7	-4	1	-1.9	-2.2	0.7
CC(Sc1nnc(C2CC2)n1C1CC1)C(=O)Nc1cccc(S(=O)(=O)N2CCOCC2)c1 (configuration not stated)	18%	0.67	i	-11	5	3	0.3	1.2	-1.2
CCN(CC(=O)NCc1ccc(Cl)cc1)C(=O)c1cc(OC)cc(OC)c1	x	0.67	i	-4	0	5	-0.6	1.9	-0.5
CO[C@@H]1CN(C)C(=O)c2cc(NC(=O)Nc3cccc(F)c3)ccc2OC[C@@H](C)N(C(=O)Nc2c(C)noc2C)C[C@@H]1C	x	x	i	x	-4	-12	1.9	6.6	x
Cc1nnc(SC(C)C(=O)NCC2CCCO2)n1-c1ccccc1 (configuration not stated)	0%	0.67	x	1	x	x	x	x	2.5
Cc1ccccc1C(=O)Nc1ccc(S(=O)(=O)N2CCOCC2)cc1	-1%	0.71	x	-4	x	x	x	x	-3.6
Cc1ccc(S(=O)(=O)N2[C@H](c3ccccc3)CC(=O)[C@@H]3CN(S(=O)(=O)c4ccccc4)[C@H](c4ccccc4)C[C@@H]32)cc1	x	x	i	x	16	9	-0.2	1.4	-2.6
N#Cc1ccc(-c2ccc(C3[C@H]4CNC[C@@H]3N4S(=O)(=O)c3ccc(-c4ccccc4)cc3)cc2)cc1 (some centres not stated)	x	x	i	x	-18*	10*	4.7*	0.3	x
Next results follow:
SMILES	Vif TR-FRET	E coli growth	FGF22 binding	ALR H2O2 inh	rRNA inh HTS	rRNA inh HTS OD600	rRNA inh HTS RFP	MLL AF4-AF9 inh	HNF4A DNA FP
COc1ccc(N(CC(=O)NCCc2ccccc2)C(=O)CCC(=O)Nc2nccs2)c(OC)c1	x	0.66	i	-9	0	-7	5.4	1.8	-0.9
Nc1nc(NCC2CCCO2)nc(Nc2ccc(Cl)cc2)c1[N+](=O)[O-] (configuration not stated)	-6%	0.67	i	-5	5	7	1.8	x	-2.8
CC1CCC/C(=C\Nc2ccc(C(=O)O)c(O)c2)C1=O (configuration not stated)	17µM*	0.66	i	1	10	3	2.8	u	-1.4
O=S(=O)(NC1=NCCC1)c1ccc(F)cc1	-1%	0.73	x	-1	x	x	x	x	-0.6
COCCCNC(=O)CSc1c2c(nc3ccc(Cl)cc13)CCCC2	-2%	0.68	i	99*	-23*	-15*	-2.8*	0.2	0.2
COC(=O)c1ccc(C(=O)N(C)C2CCCN(Cc3ccccc3F)C2)nc1 (configuration not stated)	x	0.64	i	1	16	16	0.8	-5.6	-0.3
Cc1c(C(=O)N2CCCCC2)c(S(=O)(=O)NCCc2ccccc2)c(C)n1C	x	0.67	i	2	3	2	-0.7	2.5	-4.7
C=CCn1c(SCc2ccc(F)cc2)nnc1-c1sc2nc(C)cc(C)c2c1N	-4%	0.71	i	-11	x	x	x	2.9	-1.6
CCOC(=O)N1CCN(S(=O)(=O)c2ccc(OCC)cc2)CC1	u	0.66	i	-3	-2	1	-3.6	-2.1	-2.5
CC1(C)N=c2ccc([N+](=O)[O-])c(N)c2=[N+]1[O-]	22%	0.67	i	-21	-13	-8	0.4	x	5.2
CN(C)C1=NCCN1CCC1CCCC1	x	0.69	i	0	0	8	1.7	3.2	-0.1
Cc1ccc(S(=O)(=O)N2CCN(C(=O)c3cccc(F)c3)CC2)cc1	3%	0.65	x	-9	x	x	x	x	-2.1
NNC(=O)c1cc(-c2ccc(O)cc2)nc2ccc(Br)cc12	x	0.71	i	x	-17	-21	3.0	0.2	1.1
CCCc1nc2c(sc3nc4c(cc32)COC(C)(C)C4)c(=O)n1CCN(CC)CC	2%	0.67	i	8	18	8	0.8	-1.4	0.6
CC(C)(OC(=O)c1cccs1)c1cc2ccccc2c(=O)o1	x	0.65	x	53	x	x	x	x	-2.1
Cc1ccc(S(=O)(=O)N(CC(=O)NCCSCc2ccco2)c2cc(C)ccc2C)cc1	x	0.71	x	1	x	x	x	x	5.2
O=c1oc(-c2ccc([N+](=O)[O-])cc2)nc2ccccc12	u	0.71	i	-7	13	9	-3.7	-7.2	-0.9
COc1ccc(-c2ccc(SCC(=O)N3CCOCC3)nn2)cc1	5%	0.68	i	-2	4	1	-6.6	-28	-1.0
COc1ccc(CN(C(=O)CSc2nnc(-c3ccc(F)cc3)o2)c2ccc(F)cc2)cc1	21%	0.75	i	-6	6	0	14	7.3	1.0
Cc1cccc(N2CCN(C(=S)Nc3ccc4nc5n(c(=O)c4c3)CCCCC5)CC2)c1C	0%	0.74	i	1	-4	0	0.5	0.2	1.1
CSc1ccc(C(O)c2ncc(-c3cccc(F)c3)[nH]2)cc1 (configuration not stated)	x	x	i	x	3	2	-0.3	10.0	-1.3
O=C(NNC(=O)c1ccccc1Br)c1ccc2nc[nH]c2c1	x	0.65	i	-5	7	20	-1.5	0.6	-5.7
COc1ccc(NC(=O)N(C)C[C@H]2Oc3ccc(NC(=O)c4ccncc4)cc3CC(=O)N([C@H](C)CO)C[C@H]2C)cc1	x	x	i	x	2	13	-1.2	-2.5	x
Cc1nn(-c2ccccc2)nc1C(=O)NNC(=O)c1cccc2ccccc12	1%	0.62	i	16	-21*	1.6*	-0.2*	-3.0	0.7
Cc1[nH]c2ccccc2c1C(=O)CSC(=S)N(C)C	0%	0.65	x	19	x	x	x	x	1.5

Three successive records out of the list so far, quoted:
SMILES	Vif TR-FRET	E coli growth	FGF22 binding	ALR H2O2 inh	rRNA inh HTS	rRNA inh HTS OD600	rRNA inh HTS RFP	MLL AF4-AF9 inh	HNF4A DNA FP
COc1ccc(NC(=O)N(C)C[C@H]2Oc3ccc(NC(=O)c4ccncc4)cc3CC(=O)N([C@H](C)CO)C[C@H]2C)cc1	x	x	i	x	2	13	-1.2	-2.5	x
Cc1nn(-c2ccccc2)nc1C(=O)NNC(=O)c1cccc2ccccc12	1%	0.62	i	16	-21*	1.6*	-0.2*	-3.0	0.7
Cc1[nH]c2ccccc2c1C(=O)CSC(=S)N(C)C	0%	0.65	x	19	x	x	x	x	1.5

(further entries)
SMILES	Vif TR-FRET	E coli growth	FGF22 binding	ALR H2O2 inh	rRNA inh HTS	rRNA inh HTS OD600	rRNA inh HTS RFP	MLL AF4-AF9 inh	HNF4A DNA FP
CC1CC(C)CN(C(=O)C2CC(=O)N(c3ccc(F)cc3)C2)C1 (configuration not stated)	-4%	0.65	i	2	1	0	-0.4	-7.4	1.6
C/C=C/c1ccc([C@@H]2[C@H](CO)N(CC3CCCC3)C23CN(C(=O)COC)C3)cc1	x	x	i	x	0	-10	4.8	4.6	x
O=C(c1ccccc1CCc1ccccc1)N1CCOCC1	13%	0.71	x	-1	x	x	x	x	0.8
Cc1nn(-c2ccc(F)cc2)c(Cl)c1/C=C(\CCC(=O)O)c1nc2ccccc2s1	5%	0.66	x	7	x	x	x	x	-5.5
N#C[C@H]1[C@@H](c2ccccc2-c2ccccc2)[C@@H](CO)N1C(=O)Cc1ccncc1	x	x	i	x	-2	-4	-0.8	0.4	x
Cn1c(=O)[nH]c(=O)c2c1nc(SCC(O)CO)n2CCCc1ccccc1 (configuration not stated)	x	0.61	+	-22	4	10	-1.0	7.0	-1.0
C[C@@H]1CN([C@H](C)CO)C(=O)c2cc(NC(=O)Nc3ccc4c(c3)OCO4)ccc2O[C@@H](C)CCCCO[C@H]1CN(C)S(C)(=O)=O	x	x	i	x	7	5	0.9	1.4	x
CCc1ccc(S(=O)(=O)NC2CCCCNC2=O)cc1 (configuration not stated)	0%	0.65	i	x	4	4	-0.3	-0.5	1.2
CCC(C)[C@H]1CNC(=O)C(=O)N1CC1CCCCC1 (some centres not stated)	x	x	i	x	x	x	x	1.4	2.2
CCOc1ccc(CN(C)C(=O)CNC(=O)C2CCCCC2)cc1OC	x	0.66	i	0	0	10	-1.9	0.3	-3.9
CC(CN1CCC(O)CC1)c1ccccc1 (configuration not stated)	0%	0.65	i	-9	9	11	7.0	1.3	-0.5
Cc1noc(C)c1NC(=O)Nc1ccc2c(c1)CC(=O)N([C@H](C)CO)C[C@@H](C)[C@H](CN(C)S(=O)(=O)c1c(C)noc1C)O2	x	x	i	x	7	9	0.3	0.4	x
CCn1c(CC(=O)Nc2cccc(OC)c2)nnc1SCC(=O)N1CCN(c2ccccc2)CC1	4%&-2%	0.66	x	4	x	x	x	x	0.7
CC1c2[nH]c3ccccc3c2C[C@H]2C(=O)N(CCCN(C)C)CC(=O)N12 (some centres not stated)	-7%	0.66	i	51	21	5	1.9	2.5	-0.4
